# From PubChem BioAssay
# KCNQ2 block – KCNQ2 potassium channel inhibitors, primary screen, cell-based, CHO-K1, FluxOR thallium flux, B-score (AID 2156); 1.1% of 310,000 active; O88943; B-score at 10 µM; 20 min; active compounds read low; only compounds with negative scores are shown here; some inactives read as strong as hits;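 active means fluorescence ratio B-score at most minus 3 library SDs, with starting brightness B-score within 2 library SDs, cut at about -5.5 in these data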
# Target sequence (O88943 whole entry, looked up): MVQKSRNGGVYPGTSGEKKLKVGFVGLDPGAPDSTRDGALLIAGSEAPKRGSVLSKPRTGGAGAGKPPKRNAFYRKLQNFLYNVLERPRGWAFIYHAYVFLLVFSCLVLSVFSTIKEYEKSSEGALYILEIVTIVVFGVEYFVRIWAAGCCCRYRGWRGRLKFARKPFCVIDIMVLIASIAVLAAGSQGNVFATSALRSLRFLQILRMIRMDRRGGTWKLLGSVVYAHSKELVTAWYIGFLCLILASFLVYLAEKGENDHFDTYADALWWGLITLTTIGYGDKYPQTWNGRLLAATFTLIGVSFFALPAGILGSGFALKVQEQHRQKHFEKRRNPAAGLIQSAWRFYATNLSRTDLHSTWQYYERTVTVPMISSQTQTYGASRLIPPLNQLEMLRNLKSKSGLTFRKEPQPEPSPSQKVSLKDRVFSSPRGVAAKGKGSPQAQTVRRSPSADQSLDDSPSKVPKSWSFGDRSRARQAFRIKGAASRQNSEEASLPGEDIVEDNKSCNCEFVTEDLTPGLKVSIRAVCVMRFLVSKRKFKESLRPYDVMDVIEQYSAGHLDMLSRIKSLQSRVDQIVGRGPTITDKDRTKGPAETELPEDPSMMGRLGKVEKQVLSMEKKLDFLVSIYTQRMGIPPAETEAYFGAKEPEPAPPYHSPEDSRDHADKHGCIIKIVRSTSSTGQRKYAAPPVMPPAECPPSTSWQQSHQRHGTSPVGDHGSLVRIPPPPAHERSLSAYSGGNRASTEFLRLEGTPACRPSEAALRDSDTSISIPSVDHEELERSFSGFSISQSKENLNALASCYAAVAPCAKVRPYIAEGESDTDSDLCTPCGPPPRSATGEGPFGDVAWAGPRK
# KCNQ2 block baseline – second read-out of KCNQ2 block, no call of its own (marks repeat the call); B-score; measured here: initial fluorescence intensity artifact check;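 brightness before thallium and not channel activity; 0 = typical well and far values either way flag optical interference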
# * marks the source's active call; other numbers are inactive results; i = inactive. These rows are one share of the data; the hit share may differ from the screen's.
KCNQ2 block baseline | KCNQ2 block | structure
0.27 | i | Cc1ccc(NC(=O)Cn2ccc([N+](=O)[O-])n2)cc1C
-1.08 | i | S=c1ccc2ccccc2[nH]1
-0.45 | i | Cc1cc(C)c(C#N)c(N2CCN(c3ccccc3F)CC2)n1
2 | i | COc1ccc(-c2nc(CS(=O)CC(=O)NC3CCCc4ccccc43)c(C)o2)cc1OC (configuration not stated)
-0.4 | i | COc1ccc2c(c1)CCC/C2=N\Nc1nc(C(=O)NN)cs1
6.75 | i | N#C/C(=C/c1ccc(N2CCCCCC2)o1)c1cccc(F)c1
-0.82 | i | Cc1ccc(NC(=O)C2Cc3ccccc3O/C2=N\O)cc1C (configuration not stated)
-0.05 | i | Cc1ccc(S(=O)(=O)NC2CCCCC2)c(C)c1NS(C)(=O)=O
-0.64 | i | Cc1cccc(/C=N/NC(=O)c2ccc(NC(=O)c3ccc(F)cc3)cc2)n1
-0.59 | i | COc1ccc(CCNC(=O)c2c(C)nc3ccccn23)cc1
-1.1 | i | Cc1ccc(S(=O)(=O)NC2=C(N3CCN(Cc4ccccc4)CC3)C(=O)c3ccccc3C2=O)cc1
-3.43 | i | O=S(=O)(Cc1ccccc1)NCC1CCCO1 (configuration not stated)
1.98 | i | CCC(NS(=O)(=O)c1ccc2c(c1)Cc1cc(S(=O)(=O)NC(CC)C(=O)O)ccc1-2)C(=O)O (configuration not stated)
0.03 | i | O=C(CN1C(=O)COc2ccc(Cl)cc21)Nc1ccccn1
-0.06 | i | COC(=O)NC1CCC(NC(=O)OC)CC1 (configuration not stated)
1.95 | i | COc1ccc(-n2nc3c(c2NC(=O)C(C)Oc2ccccc2)CS(=O)C3)cc1 (configuration not stated)
-0.99 | i | Cc1cc(C)c(C)c(S(=O)(=O)N2CCC(C(=O)Nc3ccncc3)CC2)c1C
-0.43 | i | CC(=O)/C(=N\Nc1ccc(Cl)cc1Cl)Sc1cccc2cccnc12
0.88 | i | O=C(CCC1CCCN(C(=O)c2cc3ccccc3o2)C1)NCc1ccc(F)c(F)c1 (configuration not stated)
0.19 | i | CCN(CC(=O)NCC(=O)Nc1cccc(C)c1C)Cc1ccccc1
1.87 | i | Cc1n[nH]c(=S)n1/N=C/c1c(O)ccc2ccccc12
0.04 | i | CCOC(=O)CCCCC(=O)c1[nH]c(=O)[nH]c1CSCCO
-0.1 | i | Cc1cc(=O)[nH]c(N/N=C/c2c(C)nn(-c3ccc(F)cc3)c2Cl)n1
1.7 | i | CN(C)c1ncnc2c1NC1=C(S2)C(=NCCCC(=O)O)CC(C)(C)C1
1.32 | i | Cc1ccc(-c2nc(C(F)(F)F)cc(=O)[nH]2)cc1
-0.58 | i | COc1ccc(C(=O)O/N=C2\CCCc3nonc32)cc1
0.02 | i | COc1ccccc1CNC(=O)C1CCCN(S(=O)(=O)c2cccc3nonc23)C1 (configuration not stated)
0.07 | i | CCCCNC(=O)c1ccccc1NC(=O)CCSc1ccccc1
-3.47 | i | O=C(c1ccc2c3c(cccc13)CC2)C1CCCN(Cc2ccccn2)C1 (configuration not stated)
-0.35 | i | CCOc1ccc(N2C(=O)CC(NNc3nc4ccccc4s3)C2=O)cc1 (configuration not stated)
2.54 | i | CCOC(=O)C1=C(C)S/C(=C\N(C)C)C1=O
-0.06 | i | CCOC(=O)c1sc(=NC(=O)COc2ccccc2)n(C)c1C
-0.24 | i | CCOc1cc(/C=C/C(=O)N(CC)CC(=O)NCc2cccs2)cc(Cl)c1OC
2.21 | i | Cc1nn(CC(=O)Nc2ccc3c(c2)OCO3)c(C)c1Cl
0.5 | i | CCOC(=O)N1CCN(C(=O)CN(C2CCCCC2)S(=O)(=O)c2c(C)cc(C)cc2C)CC1
2.37 | i | COCCCNC(=O)c1nc2c(nnn2Cc2cc(C)ccc2C)c(=O)[nH]1
-1.09 | i | O=C(CNCCC1=CCCCC1)Nc1ccc(N2CCCCCC2)cc1
2.1 | i | COc1ccccc1NC(=O)c1ccccc1NC(=O)c1cccs1
-1.07 | i | CC(Nc1nc(N2CCCCC2)nc2ccccc12)c1ccccc1 (configuration not stated)
0.85 | i | COc1cc(OC)c(NC(C)C(=O)N2CCCC2)cc1Cl (configuration not stated)
-0.65 | i | CCCCOc1ccccc1C1NC(=O)NC(C)=C1C(=O)OCc1ccco1 (configuration not stated)
-0.59 | i | CCOc1ccc(S(=O)(=O)N2CCN(Cc3ccccc3)CC2)cc1
0.26 | i | CC(C)c1nc(N2CCOCC2)c(C#N)c2c1CCCC2
-0.3 | i | O=C(CN1C(=O)/C(=C/c2cccc(Cl)c2)SC1=S)NC1C=CS(=O)(=O)C1 (configuration not stated)
-1.68 | i | C#Cc1ccc([C@@H]2C=C(C(=O)N3CCOCC3)O[C@H](OCCCCO)C2)cc1
-0.3 | i | O=C(N/N=C/c1ccc([N+](=O)[O-])s1)C(O)c1ccccc1 (configuration not stated)
-0.86 | i | N#CC1=C(SCc2ccccc2)NC(=O)CC1c1ccccc1 (configuration not stated)
0.67 | i | CN(C)c1ccc(/C=N/NC(=O)C(=O)N2CCCCCC2)cc1
-0.55 | i | O=C(CCn1cncn1)N1CCN(S(=O)(=O)c2ccc(Cl)cc2)CC1
0.17 | i | CCN(CC)c1ccc(S(=O)(=O)N(CC)CC)cc1NC(=O)C1CCCC1

# (further entries)
KCNQ2 block baseline | KCNQ2 block | structure
0.01 | i | Cc1cc(C)cc(NC(=O)C2CCN(S(C)(=O)=O)CC2)c1
0.05 | i | CN(Cc1ccc(F)cc1)C(=O)CNC(=O)C1CCCCC1
-0.61 | i | O=C(COc1ccccc1Cl)Nc1ccc2oc(=O)ccc2c1
1.06 | i | CCCCn1c(N)c(N(CC(C)C)C(=O)c2cccc(S(=O)(=O)N(C)c3ccccc3)c2)c(=O)[nH]c1=O
-0.03 | i | COc1cccc(/C=N/n2c(C)nc3ccccc3c2=O)c1O
1.33 | i | CCOC(=O)C1CCN(C(=O)c2sc3nc(-c4ccccc4)cn3c2C)CC1
0.58 | i | Cc1cc(=O)oc2cc(OCC3CC(c4ccccc4Cl)=NO3)ccc12 (configuration not stated)
0.46 | i | O=C(CNC(=O)N1CC(=O)Nc2ccccc21)Nc1ccccc1
-2.34 | i | CCCCN(Cc1ccco1)S(=O)(=O)c1csc(C(N)=O)c1
-0.07 | i | O=C(OCC(=O)N1CCCc2ccccc21)c1cc(S(=O)(=O)N2CCOCC2)ccc1Cl

# Random excerpt: 5 records from the list.
KCNQ2 block baseline | KCNQ2 block | structure
0.01 | i | Cc1cc(C)cc(NC(=O)C2CCN(S(C)(=O)=O)CC2)c1
0.46 | i | O=C(CNC(=O)N1CC(=O)Nc2ccccc21)Nc1ccccc1
-2.34 | i | CCCCN(Cc1ccco1)S(=O)(=O)c1csc(C(N)=O)c1
-0.61 | i | O=C(COc1ccccc1Cl)Nc1ccc2oc(=O)ccc2c1
-0.03 | i | COc1cccc(/C=N/n2c(C)nc3ccccc3c2=O)c1O

# Next compounds follow:
KCNQ2 block baseline | KCNQ2 block | structure
1.27 | i | COc1cccc(C(=O)C2CCCN(C(=O)CCc3scnc3C)C2)c1 (configuration not stated)
-1.64 | i | Cc1cc(=O)[nH]c(SCC(=O)NC2CCCCC2)n1
0.74 | i | COc1cc2c(cc1OC)C(c1ccccc1)N(C(=O)c1ccco1)CC2 (configuration not stated)
1.16 | i | CC(C)(NO)/C(=N/O)c1ccc(Br)cc1
-0.04 | i | COc1ccc(C(=O)NCCCNC(=O)c2ccccn2)cc1Br
-0.14 | i | CCCNS(=O)(=O)c1ccc(CCC(=O)N2CCN(c3ccc(F)cc3)CC2)cc1
-0.61 | i | CCOC(=O)N1CCN(C(=O)C2CCN(Cc3ccc(OC)cc3OC)CC2)CC1
1.87 | i | CC1CCCCN1Cc1c(O)ccc2c(=O)c(-c3ccc(Cl)cc3)coc12 (configuration not stated)
1.99 | i | Cc1ccc(C(=O)OCC(=O)c2ccccc2)cc1
2.12 | i | N#Cc1cccc(N=Cc2c(O)ccc3ccccc23)c1
0.02 | i | CC1=CC(C)(C)Nc2ccc(OC(=O)C(Cc3ccccc3)N3C(=O)c4ccccc4C3=O)cc21 (configuration not stated)
1.47 | i | NC(=O)CN1C(=O)C2C3c4ccccc4C(c4ccccc43)C2C1=O (configuration not stated)
1.7 | i | O=C(Oc1c(CN2CCOCC2)cc(Cl)c2cccnc12)c1ccccc1Br
2.05 | i | CCSc1n[nH]c(=S)s1
0.34 | i | Cc1ccc(C)c(NS(=O)(=O)c2ccc(-c3coc(C)n3)cc2)c1
-0.1 | i | CCOC(=O)C1=C(C)Nc2ccccc2S1
-0.8 | i | Cc1cccc(C(=O)NC(=S)NNC(=O)Cc2ccccc2)c1
0.55 | i | COc1ccc(N2CCN(S(=O)(=O)CCNC(=O)c3ccc4c(c3)OCO4)CC2)cc1
-2.02 | i | O=C(N/N=C/c1ccc(O)c(O)c1)C1c2ccccc2Oc2ccccc21
1.53 | i | CCCn1c(CCC(=O)O)ccc1-c1ccc(OC)cc1
0.27 | i | CC(C)=NNC1=NC(C)(C)Cc2ccccc21
0.43 | i | COc1ccc(-c2oc3ncnc(NCCCO)c3c2-c2ccc(OC)cc2)cc1
0.18 | i | O=S(=O)(NCC(c1ccc2c(c1)OCO2)N1CCOCC1)c1ccc(Br)cc1 (configuration not stated)
1.05 | i | COc1cc(/C=C2\SC(c3ccc(C)cc3)=NC2=O)cc(OC)c1O
0.02 | i | COc1cccc(CN2CCCC(C(=O)N3CCCCC3)C2)c1OC (configuration not stated)
2.35 | i | COC(=O)c1ccc(CSc2cc(C)c3cc(C)cc(C)c3n2)o1
1.79 | i | CC(=O)CCc1ccc(OCCCCN2CCC(Cc3ccccc3)CC2)cc1
0.63 | i | COc1cccc(OCc2nnc(SCC(=O)N3c4ccccc4Sc4ccc(Cl)cc43)o2)c1
-0.34 | i | COc1ccc(CN2CCN(CCCc3ccccc3)C(CCO)C2)c(O)c1 (configuration not stated)
0.31 | i | CCc1ccc(Nc2n[n+](-c3ccccc3)c(-c3cc(OC)c(OC)cc3Br)s2)cc1

# Compounds shown so far with bromine:
KCNQ2 block baseline | KCNQ2 block | structure
1.16 | i | CC(C)(NO)/C(=N/O)c1ccc(Br)cc1
-0.04 | i | COc1ccc(C(=O)NCCCNC(=O)c2ccccn2)cc1Br
1.7 | i | O=C(Oc1c(CN2CCOCC2)cc(Cl)c2cccnc12)c1ccccc1Br
0.18 | i | O=S(=O)(NCC(c1ccc2c(c1)OCO2)N1CCOCC1)c1ccc(Br)cc1 (configuration not stated)
0.31 | i | CCc1ccc(Nc2n[n+](-c3ccccc3)c(-c3cc(OC)c(OC)cc3Br)s2)cc1

# (list continues)
KCNQ2 block baseline | KCNQ2 block | structure
-1.1 | i | O=C(CCN1C(=O)C2CC=CCC2C1=O)N1CCN(c2ccccn2)CC1 (configuration not stated)
1 | i | Cc1nc(-c2ccc(Cl)cc2)sc1C1(C)CC(c2cccc([N+](=O)[O-])c2)=NO1 (configuration not stated)
0.03 | i | COC(C(=O)Nc1ccnn1C1CCN(C(=O)c2ccc(C=O)cc2)CC1)c1ccccc1 (configuration not stated)
-0.95 | i | Cc1ccccc1NC(=O)Cn1nc(C)n2cccc2c1=O
1.35 | i | Cc1ccc2nc(SCC(=O)Nc3cccc(S(=O)(=O)N(C)C)c3)[nH]c2c1
-0.8 | i | COC(=O)c1ccccc1N=Nc1c(C)noc1C
2.78 | i | S=C(Nc1ccc(Br)cc1)NC1CCN(Cc2ccccc2)CC1
0.29 | i | O=C(Nc1ccc(C(F)(F)F)cc1)c1cnc(N2CCN(c3ccccn3)CC2)c2ccccc12
-0.02 | i | Cc1noc(C)c1COC(=O)c1cnc(Cl)c(Cl)c1
-2.88 | i | Cc1ccc(CN2CC(C(=O)N3CCN(S(=O)(=O)c4cccc(F)c4)CC3)CC2=O)cc1 (configuration not stated)
-1.78 | i | O=C(Nc1cccc(Cl)c1)N(CCCN1CCOCC1)Cc1ccccc1F
0.51 | i | CCN(CC)C(=O)Cn1cc(C(=O)C2CC2)c2ccccc21
0.04 | i | O=C(NCc1ccc(F)cc1)c1ccc(Br)o1
-1.12 | i | CC1CCN(C(=O)Cn2c(=O)n(Cc3ccco3)c(=O)c3sccc32)CC1
0.45 | i | Cc1ccc(C)c(N(C)S(=O)(=O)c2cccc3nsnc23)c1
0.4 | i | CC(C)CN(C(=O)Cn1c(=O)cnc2ccccc21)C1CCS(=O)(=O)C1 (configuration not stated)
-0.11 | i | CCN(CC)c1ccc(C2C(C(=O)OC)=C(C)NC(C)=C2C(=O)OC)cc1
0.05 | i | CCOC(=O)/C=C1\Nc2ccccc2OC1=O
-0.02 | i | CC(=O)c1ccc(OCC(O)CN2CCN(S(=O)(=O)c3c(C)c(C)cc(C)c3C)CC2)cc1 (configuration not stated)
1.72 | i | FC(F)(F)c1ccc(/C=N/N2CCN(Cc3ccccc3)CC2)cc1
-0.02 | i | O=C1CC(NCC2CCCO2)C(=O)N1c1ccc(F)cc1 (configuration not stated)
-0.48 | i | CN(CC(=O)NCCc1ccc(F)cc1)Cc1cccs1
-1.28 | i | O=C(NC1CCCC1)C1CCCN(S(=O)(=O)c2ccc(F)cc2)C1 (configuration not stated)
-1.34 | i | CC1C2NC(=O)N(Cc3ccccc3)C1(C)Oc1ccccc12 (configuration not stated)
-0.79 | i | CC(=O)Nc1ccc(NC(=O)COc2ccc(-c3ccccc3)cc2)cc1
1.97 | i | CCOC(=O)c1cc2c(=O)n3ccccc3nc2n(Cc2ccco2)c1=NC(=O)c1ccc(OC)cc1OC
-0.11 | i | COc1ccc(NC(=O)CCCc2ccc(OC)c(C)c2)cc1
0.11 | i | O=C(CSc1ccccn1)Nc1ccc(Cl)cn1
1.07 | i | CCc1ccc(NC(=O)Cn2c3[n+](c4c(F)c(F)ccc42)CCCCC3)cc1
